Hsc70 = Hsc70 inhibitors, probe displacement, primary screen, biochemical, fluorescence polarization (AID 568) | Heat shock cognate 71 kDa protein (Homo sapiens) | Hsc70 fluorescence polarization, probe displacement; higher % means a stronger effect; strong numbers were not always called active | 83,000 tested, under 10 active | displacement, % at 20 µM, or IC50 in µM where a hit was titrated;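 active = displacement above 50% without optical interference and an IC50 on retest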;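 also: ATPase domain with a fluorescein-tagged ATP probe; 0% = vehicle and 100% = excess ADP; read after one hour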
WNV NS2B-NS3 inh = inhibitors of WNV NS2B-NS3 protease, primary screen, biochemical, fluorogenic substrate; Genome polyprotein (West Nile virus), P06935; fluorogenic substrate Ex360/Em465; active compounds read low; z-score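 (tested at a level between 10 and 100 µM)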; 0.18% of 65,000 active; AID 577, 2007;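 active = z-score at -3 or under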;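 also: score is relative to mean and spread of the compound wells of a plate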
Target sequence (P06935 1371-1501 limits assumed): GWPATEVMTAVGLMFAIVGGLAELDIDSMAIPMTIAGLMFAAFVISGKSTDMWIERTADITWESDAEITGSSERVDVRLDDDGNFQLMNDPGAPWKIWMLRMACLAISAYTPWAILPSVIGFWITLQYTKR
Target sequence (P06935 1502-1679 limits assumed): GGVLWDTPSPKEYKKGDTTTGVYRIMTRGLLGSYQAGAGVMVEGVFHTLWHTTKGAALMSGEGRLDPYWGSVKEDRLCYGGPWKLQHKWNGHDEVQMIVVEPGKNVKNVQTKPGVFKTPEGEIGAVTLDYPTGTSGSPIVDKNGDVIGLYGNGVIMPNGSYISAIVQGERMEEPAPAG
MT1-MMP promoter = inhibitors of MT1-MMP promoter transcription, cell-based, luciferase reporter, luminescence (AID 618); 0.62% of 87,000 active; MT1-MMP promoter luciferase reporter cells, luminescence; calls from a first round at 10 µM; hits with a dose series show EC50 in µM;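 active = over half of the reporter light lost at 10 µM or EC50 under 50 µM; inactive = the rest and hits that failed the dose series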;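 also: actives suppress MT1-MMP promoter-driven transcription so potencies describe inhibitors; HT1080 fibrosarcoma cells; overnight exposure; toxic or luciferase-blocking compounds were not removed from the actives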
* = called active by the depositor; i = inactive; · = not tested or not shown. Only part of the results is shown (hit frequency here may not be typical).

Preview:
SMILES | Hsc70 | WNV NS2B-NS3 inh | MT1-MMP promoter
CCn1cc(C(=O)NCc2ccc(C)o2)c2cc(OC)c(OC)cc2c1=O | 0.1% | 1.1 | i
Cc1cc(C(=O)Oc2ccccc2C(=O)O)c(C)o1 | -0.7% | 2.5 | i
Fc1ccccc1CSc1ncn[nH]1 | 5.8% | · | i
c1ccc(-c2nnc(-c3ccccc3)o2)cc1 | -5.1% | · | i

The listing, from the first entry:
SMILES | Hsc70 | WNV NS2B-NS3 inh | MT1-MMP promoter
CCn1cc(C(=O)NCc2ccc(C)o2)c2cc(OC)c(OC)cc2c1=O | 0.1% | 1.1 | i
Cc1cc(C(=O)Oc2ccccc2C(=O)O)c(C)o1 | -0.7% | 2.5 | i
Fc1ccccc1CSc1ncn[nH]1 | 5.8% | · | i
c1ccc(-c2nnc(-c3ccccc3)o2)cc1 | -5.1% | · | i
CSC1=NCCN1C(=O)COc1ccccc1 | -0.8% | -1.6 | i
CCC(=O)c1ccc(OCCSc2ncccn2)cc1 | -3.4% | -1.5 | i
COc1ccc(NC(=O)CNS(=O)(=O)c2ccccc2)cc1Cl | 1.3% | -0.24 | i
CSCC[C@H](NC(=O)Nc1ccc(C)cc1)C(=O)O | -2.7% | 0.22 | i
O=S(=O)(N/N=C/c1ccc(Cl)cc1)c1ccc(Cc2ncc(C(F)(F)F)cc2Cl)s1 | 1.6% | · | i
O=C(CN1CCCCC1)N1c2ccccc2CCc2ccccc21 | -4.5% | · | i
c1ccc(CN2CCOCC2)cc1 | 1.7% | · | i
COc1cc(NC(=O)c2ccc(-c3ccc(Br)cc3)o2)ccc1NC(=O)C(C)C | -8.4% | -0.59 | i
O=C(CSCc1cccc(CSCC(=O)Nc2ccccc2)n1)Nc1ccccc1 | 1.3% | · | i
CCC1SC2=NCN(c3ccccc3)CN2C1=O (stereo unspecified) | -2.9% | -0.43 | i
Cn1c(C(=O)NCC2CCCO2)cc2c(=O)n3ccccc3nc21 (stereo unspecified) | 2.4% | 4.2 | i
Cn1c(=O)c2ncn(CC(=O)NCCC3=CCCCC3)c2n(C)c1=O | 8.3% | -0.73 | i
CCOc1ccc(C(=O)C2CCN(CC(=O)Nc3ccccc3N3CCOCC3)CC2)cc1 | -3.3% | -0.1 | i
O=C(Nc1cccc(-c2nnc(-c3ccccc3)o2)c1)c1ccc(Br)o1 | 1.8% | 0.21 | i
O=C(NCc1ccccc1Cl)c1cnccn1 | 1.6% | · | i
N#CC1=C2SCN(c3ccccc3)CN2C(=O)CC1c1c(Cl)cccc1Cl (stereo unspecified) | 3.2% | -1.1 | i
NC(=O)OCC(COC(N)=O)c1ccccc1 | -3.8% | -0.08 | i
CC1CCCCC1NC(=O)C1Cc2ccccc2CN1S(C)(=O)=O (stereo unspecified) | 0.0% | -1 | i
CC(C)c1nnc(SCc2ccc(CSc3nnc(C(C)C)n3N)cc2)n1N | 2.0% | 0.24 | i
CC(OC(=O)c1snc(C(=O)NC2CCCCC2)c1N)C(=O)NC1CCCCC1 (stereo unspecified) | -1.2% | · | i
O=C(c1ccncc1)N(Cc1cc2ccccc2[nH]c1=O)C1CCCCC1 | 0.5% | -0.67 | i
CC(C)Nc1nnc(SCC(=O)Nc2ccc(F)cc2)s1 | 7.5% | 1.9 | i
NC(=O)c1sc2nc3c(c(-c4ccccc4)c2c1N)CCC3 | 0.7% | · | i
CCCC(c1nnnn1CCOC)N1CCN(c2cccc(OC)c2)CC1 (stereo unspecified) | 8.0% | 0.06 | i
C=CCn1c(=N)c(C(=O)OC)cc2c(=O)n3cccc(C)c3nc21 | 4.1% | 0.48 | i
O=C1c2ccccc2CCC12N=NCC2c1ccccc1 (stereo unspecified) | 4.1% | · | i
COc1ccc2[nH]c(=O)c(CN(CC3CCCO3)C(=O)Nc3ccccc3OC)cc2c1 (stereo unspecified) | -0.8% | 0.22 | i
CCN1c2ccccc2NC2C1C(C(C)=O)C(=O)N2c1ccc(Cl)cc1 (stereo unspecified) | -35% | 1.4 | i
Cc1cc(C)c2cc(C#N)c(NCCCNC(=O)CCC(=O)O)nc2c1 | -7.8% | -0.39 | i
O=C(C1Cc2ccccc2CN1S(=O)(=O)c1ccc(F)cc1)N1CCOCC1 (stereo unspecified) | 4.2% | · | i
Cc1cc(N)ccc1-n1c(C)ccc1C | -9.6% | -1.1 | i
CCc1cc2c(CN3CCN(CCO)CC3)cc(=O)oc2cc1O | -1.8% | 5 | i
Cc1ccc(SC/C(O)=C(\C#N)c2nc3ccccc3n2C)cc1 | -2.7% | -0.06 | i
COc1ccccc1N1CCN(C2CCCC(C)C2)CC1 (stereo unspecified) | 0.1% | · | i
CC(C)N1C(=S)SC(C)(C)C1NO (stereo unspecified) | 1.8% | -0.23 | i
Cc1cc(Nc2cc(F)ccc2C)n2nc(C)nc2n1 | 1.1% | -0.46 | i
CCN(CC)CCNc1nc2ccccc2n1C | -1.3% | 0.98 | i
Cc1ccc(Cn2nnnc2CN2CCC(NC(=O)c3ccccc3F)CC2)cc1 | -0.2% | · | i
Cc1ccccc1C(=O)OCn1nnc2ccccc2c1=O | 1.5% | 0.69 | i
Nn1cnc2sc3c(c2c1=O)CCC3 | -2.1% | · | i
CCn1c(C(=O)N2CCC(C(=O)NCc3ccc4c(c3)OCO4)CC2)cc2sccc21 | 6.3% | 0.01 | i
CCc1ccc(NC(=O)Cn2nc(C(F)(F)F)c3c2CCC3)cc1 | -1.5% | · | i
Brc1cnc(N2CCCC2)nc1N1CCOCC1 | -4.4% | -0.14 | i
O=C1N(c2ccc(Cl)c(Cl)c2)CN(Cc2ccccc2)CN1n1cnnc1 | -3.8% | 0.64 | i
Cc1ccc(C2CC(=O)Nc3sc(C(N)=O)c(N)c32)cc1 (stereo unspecified) | 4.5% | 1.3 | i
COc1cccc(N2CCN(C3CC(=O)N(c4ccc(C)c(Cl)c4)C3=O)CC2)c1 (stereo unspecified) | -0.2% | 0.24 | i

Further compounds.
SMILES | Hsc70 | WNV NS2B-NS3 inh | MT1-MMP promoter
O=C(OC(C(=O)NCc1cccs1)c1ccccc1Cl)c1ccco1 (stereo unspecified) | -1.6% | -0.98 | i
CCCn1c(C(=O)OC)cc2c1ccn2-c1ccc(F)cc1 | -1.3% | · | i
COc1ccc(N2CCN(S(=O)(=O)c3cccc4nsnc34)CC2)cc1 | -2.3% | · | i
O=c1cc(-c2ccc(F)cc2)oc2ccccc12 | 4.9% | · | i
CCOC(=O)C(=O)Nc1nnc(C2CCCCC2)s1 | 0.6% | · | i
COc1ccc(C(=O)CSc2nnc(-c3cnccn3)n2Cc2ccco2)cc1 | 0.9% | -0.92 | i
N#CC1=C(N)SC(N)=C(C#N)C1C1C=CCCC1 (stereo unspecified) | -4.7% | · | i
CCCc1cc(-n2ccnc2)n2c(nc3ccccc32)c1C#N | -70% | 0.05 | i
CCCCOC(=O)CN1C(=O)c2ccc(C(=O)OCCCC)cc2C1=O | 1.4% | 0.27 | i
COC(=O)c1cc(-c2ccccc2)on1 | -2.1% | · | i
O=C(Nc1cnc2ccccn2c1=O)c1ccc(Cl)cc1 | -2.2% | · | i
Cc1cc(NC(=O)NC2(C(F)(F)F)Oc3ccc(Cl)cc3O2)no1 (stereo unspecified) | 6.5% | · | i
CC/C(=N\n1nnnc1Nc1ccccc1)c1ccccc1 | 2.0% | · | i
Cn1nnc(-c2ccc(OCc3ccccc3F)cc2)n1 | -9.1% | 0.17 | i
CCn1nnnc1SCC(=O)Nc1nc(-c2cccs2)cs1 | -2.5% | -0.2 | i
CC(C)n1nc(C(=O)OCC(=O)N(C)C2CCS(=O)(=O)C2)c2ccccc2c1=O (stereo unspecified) | -4.4% | 1.1 | i
CCOC(=O)N1CCN(C(=O)CN2C(=O)COc3ccc(C)cc32)CC1 | -0.2% | 0.13 | i
CCCC(=NCC(=O)O)C1=C(O)C(C(=O)OC)C(C)(C)CC1=O (stereo unspecified) | 9.7% | -0.6 | i
O=C(NCc1cccs1)c1cc(S(=O)(=O)N2CCCCC2)ccc1Cl | -0.6% | · | i
CN=C(C)C1=C(O)C(C(=O)OC)C(C)(C)CC1=O (stereo unspecified) | 7.0% | -0.13 | i
Cc1cc(=O)c(C(=O)O)cn1Nc1ccc(F)cc1 | 8.3% | · | i
Cc1onc(-c2c(Cl)cccc2Cl)c1C(=O)Nn1cnnc1 | -0.6% | -0.69 | i
COc1ccc(CN2CCN(C(=O)c3ccco3)CC2)cc1 | 3.8% | -0.14 | i
N#Cc1cccc(Cn2nnc(-c3ccccc3)n2)c1 | 2.8% | -0.64 | i
O=C(COc1ncnc2sccc12)N1CCN(S(=O)(=O)c2ccc(Cl)cc2)CC1 | -7.4% | -0.47 | i
CC(=O)Nc1sc(C)c(C)c1C(=O)OC1CCOC1=O (stereo unspecified) | -2.5% | -0.36 | i
COCCN1C=C(C(=O)OC)C(c2ccc3c(c2)OCO3)C(C(=O)OC)=C1 | 0.4% | -0.9 | i
O=C(C1=C(O)C(=O)N(CCN2CCOCC2)C1c1ccncc1)c1ccco1 (stereo unspecified) | 3.1% | -1.3 | i
COC(=O)c1ccc(OC(=O)c2ccccn2)cc1 | 0.5% | -0.07 | i
COCc1ccc2oc(C(=O)O)cc2c1 | -9.3% | 0.91 | i
CC1=C(C(=O)NCc2ccccc2)C(c2cc(Br)cc(Br)c2OC(C)C)NC(=O)N1 (stereo unspecified) | -5.6% | · | i
Cc1coc2c(C)c3oc(=O)c4c(c3cc12)CCCC4 | 4.5% | -0.39 | i
O=c1c2ccccc2nnn1CSc1nnc(-c2ccco2)o1 | 2.4% | 1.6 | i
CN1CCN(CCC(=O)Nc2ccccc2Cl)CC1 | -0.9% | -1.7 | i
Cc1ccc2[nH]c3nc(SCCN4CCOCC4)nnc3c2c1 | -2.7% | 0.53 | i
COc1ccc(NC(=O)CCS(=O)(=O)c2ccc3c(c2)CCCN3C(C)=O)cc1 | 0.6% | 1.4 | i
Cc1ccccc1C(=O)N=c1sccn1C | -0.6% | · | i
COC(=O)C1C2C=CC3(CN(C(C)C)C(=O)C13)O2 (stereo unspecified) | -0.3% | -1.3 | i
CC(C)Oc1ccc(C(=O)N/N=C/c2ccc(-c3ccc(S(=O)(=O)Nc4ncccn4)cc3)o2)cc1 | -7.0% | · | i
COc1ccc2nc(C)c3cc(C)oc3c2c1 | 1.8% | 1.3 | i
CCS(=O)(=O)N1CCC(C(=O)NCCC2=CCCCC2)CC1 | 1.9% | 1.5 | i
CCCOc1ccc(C2/C(=C(/O)c3ccccc3)C(=O)C(=O)N2CCCN(C)C)cc1OC (stereo unspecified) | -1.1% | 0.94 | i
CCn1cc(C(=O)O)c(=O)c2cc(S(=O)(=O)N(C)C)ccc21 | 2.2% | 1.1 | i
Cc1[nH]n(-c2ccc([N+](=O)[O-])cc2)c(=O)c1C=NCCN1CCN(C(=O)c2ccc(Br)cc2)CC1 | -4.1% | · | i
Cc1ccc(SCCCCN2C(=O)NC(C)(C)C2=O)cc1 | -0.1% | -0.09 | i
CCC(C)(C(=O)NC1CCCC1)N(C(=O)CNC(C)=O)c1ccccc1 (stereo unspecified) | -3.5% | 0.15 | i
O=C(C1CCN(c2ncnc3c2sc2cccc(F)c23)CC1)N1CCOCC1 | 4.1% | -0.9 | i
O=C(Nc1ccc(Cl)c(Cl)c1)Nc1cc(C(=O)N2CCOCC2)ccc1N1CCCCC1 | 6.6% | -0.43 | i
COC(=O)c1[nH]c2cccc(OC)c2c1NC(=O)CN(C)CC1OCCO1 | -2.4% | · | i
O=C1N(CN2CCN(c3cccc(Cl)c3)CC2)c2ccccc2C12OCCCO2 | -3.1% | -2 | i

New compounds follow
SMILES | Hsc70 | WNV NS2B-NS3 inh | MT1-MMP promoter
CCSc1ccc2nnc(-c3cccc(F)c3)n2n1 | 6.7% | 0.06 | i
Cc1ccc2nc(NCCCN3CCOCC3)c(C=NCCCN3CCOCC3)c(=O)n2c1 | -1.6% | 1.9 | i
OCc1cn(-c2ccccc2)nc1-c1ccc(-c2nn(-c3ccccc3)cc2CO)cc1 | 0.3% | 0.2 | i
COc1ccc(C2CC(c3c(-c4ccccc4)c4cc(Cl)ccc4[nH]c3=O)=NN2S(C)(=O)=O)cc1 (stereo unspecified) | -2.3% | · | i
CC#CCCCC(=O)Nc1ccc(C(=O)O)cc1 | -7.4% | -1.1 | i
c1ccc(OCCSc2nnnn2-c2ccccc2)cc1 | -8.3% | -1.8 | i
O=C(c1cccc(C(F)(F)F)c1)N1CCCCCC1 | 2.0% | -0.07 | i
O=C(CC1CCCC1)Nc1nc2ccccc2[nH]1 | -3.8% | -0.56 | i
CC(C)Cn1cnc2c(N)nc3ccccc3c21 | 2.3% | -0.36 | i
CCOC(=O)c1c(C)sc2c1N(C(C)=O)c1cc(Cl)ccc1S2 | 1.6% | · | i

Bioassay records: PubChem BioAssay, several laboratories
